HNF4A DNA FP – change in binding of human HNF4A to DNA, primary screen, biochemical, fluorescence polarization, FITC-DNA. AID 1224865, 2016. actives 0.3% (n = 360,000). Hepatocyte nuclear factor 4-alpha (Homo sapiens), P41235. 1 h. activity change, % at 10 µM; in the data active = activity change above about 30%, passing the limit was not always enough;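 also: controls were the assay level and a saturating level of protein; the project sought stronger binding though the title names inhibitors; some compounds called inactive have numbers as strong as hits; positive values seem to mean higher polarization but the record does not say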
Target sequence (P41235 whole entry, looked up): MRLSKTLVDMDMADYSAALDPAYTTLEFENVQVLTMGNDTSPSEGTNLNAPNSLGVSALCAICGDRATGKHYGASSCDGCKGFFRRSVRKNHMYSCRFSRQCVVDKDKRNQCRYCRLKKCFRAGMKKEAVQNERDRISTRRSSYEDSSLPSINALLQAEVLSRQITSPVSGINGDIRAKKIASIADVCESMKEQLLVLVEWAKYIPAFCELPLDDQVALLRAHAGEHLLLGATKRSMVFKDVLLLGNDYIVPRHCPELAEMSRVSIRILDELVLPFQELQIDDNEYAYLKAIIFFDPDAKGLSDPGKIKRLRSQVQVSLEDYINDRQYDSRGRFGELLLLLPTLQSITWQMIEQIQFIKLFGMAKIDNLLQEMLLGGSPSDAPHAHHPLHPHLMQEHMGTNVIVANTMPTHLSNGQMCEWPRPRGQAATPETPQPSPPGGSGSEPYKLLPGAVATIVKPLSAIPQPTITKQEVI
Vif TR-FRET – inhibitors of Vif binding to APOBEC3G peptide, primary screen, biochemical, TR-FRET, GST-Vif 1-94, biotin-A3G peptide, dose response retest (AID 1117319); Virion infectivity factor (Human immunodeficiency virus type 1 group M subtype B (isolate …; TR-FRET GST-Vif / biotin-A3G peptide binding; higher % means a stronger effect; test concentration not given here; strong numbers were not always called active; inhibition, %; hits with a dose series show IC50 in µM; actives 0.57% (n = 260,000);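 active = above the screen mean plus three standard deviations and confirmed in dose response; inconclusive = results disagree or hit not tested in dose response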;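 also: Vif residues 1-94 fused to GST binding biotinylated APOBEC3G peptide 110-148; 0% = full assay without inhibitor and 100% = GST in place of GST-Vif; retest series ran down from 100 µM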
ALR H2O2 inh – inhibitors of human ALR sulfhydryl oxidase, primary screen, biochemical, H2O2 detection, HRP-luminol luminescence, single point. actives 3.8% (n = 290,000). inhibition, % (concentration not given with the values). FAD-linked sulfhydryl oxidase ALR (Homo sapiens), P55789. AID 485317, 2010. purified ALR, DTT oxidation;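 active = mean and each replicate at 75% or more; inconclusive = only one of the two met; inactive = neither met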;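 also: stock transfer was 7.5 nL into about 7.5 µL; 0% = neutral wells and 100% = wells with inactivated enzyme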
Target sequence (P55789 whole entry, looked up): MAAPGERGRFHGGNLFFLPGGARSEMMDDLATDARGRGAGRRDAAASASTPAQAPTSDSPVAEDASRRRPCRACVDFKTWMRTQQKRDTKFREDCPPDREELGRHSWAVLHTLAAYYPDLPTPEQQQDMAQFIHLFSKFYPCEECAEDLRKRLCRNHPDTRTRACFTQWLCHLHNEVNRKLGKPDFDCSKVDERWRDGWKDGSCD
RanGTP-Impb inh – inhibitors of RanGTP-importin-beta interaction, primary screen, biochemical, FRET, CFP-Ran, YFP-importin-beta, homogeneous; inhibition, % (concentration not given with the values); cell-free CFP-Ran/YFP-importin-beta FRET ratio; Ran GTPase (GTP-bound) - importin-beta complex; AID 2216, 2009; actives 1.1% (n = 300,000);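 active = most replicates above 15%; inconclusive = exactly half above 15%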;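 also: 0% = DMSO wells and 100% = Ran loaded with GDP instead of GTP; wells of about 40 µL received 100 nL stock; the first replicate is given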
Beta2AR agonist – beta2AR agonists driving receptor internalization, primary screen, cell-based, FAP fluorogen, flow cytometry. Am2.2-beta2AR cells; reference of the scale not given here. Beta-2 adrenergic receptor (Homo sapiens), P07550. actives 0.43% (n = 340,000). AID 504454, 2011. response, % (no concentration beside the values);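 active = response above a set limit, near 3 SD of response in nonfluorescent compounds, cut at about 42% in these data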;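 also: stock transfer was 100 nL into about 11 µL; a reference agonist was the positive control; negative values mostly stem from fluorescent compounds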
LANA-H2A inh – blockers of LANA interaction with H2A/H2B – biochemical, FP readout, HTS, primary screen. Protein LANA1 (Human herpesvirus 8 type P (isolate GK18)), Q9QR71. cell-free LANA-H2A/H2B peptide, fluorescence polarization. inhibition, % (no concentration beside the values). actives 0.6% (n = 320,000); in the data active = inhibition mostly above about 10%, no sharp cut-off; inactive = mostly below about 6.7%;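 also: stock transfer was 7.5 nL into about 10 µL; 0% = median of vehicle wells and 100% = median of positive control wells; one replicate is shown; the record names a cut of 25% in any replicate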
Calb FLC – C. albicans growth inhibition with fluconazole, primary screen, CaCi-2 strain, Alamar Blue fluorescence; actives 0.57% (n = 300,000); growth inhibition, % (test concentration not listed); C. albicans CaCi-2 (fluconazole-resistant clinical isolate) + fluconazole, 48 h;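 active = most replicates above 75%; inconclusive = exactly half above 75%; inactive = most below 75%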;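 also: all wells also contain fluconazole at 8 µg/ml as a sub-toxic cotreatment; 0% = median of DMSO wells and 100% = median of geldanamycin control wells; wells of about 8 µL received 7.5 nL stock; the first replicate is given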
* hit, by the source's call; ? = inconclusive; · = not tested or not shown.

Under each structure – LANA-H2A inh	Calb FLC	ALR H2O2 inh	RanGTP-Impb inh	Vif TR-FRET	Beta2AR agonist	HNF4A DNA FP
- CCC(Oc1cc(Cl)ccc1Cl)C(=O)NNC(=O)CCC(=O)O (stereo not given)
  0.7	6	-12	-0.1	2%	1	-1.6
- O=C(Nn1cnnc1)c1ccc(Cl)c(Cl)c1
  -0.9	2	17	-6.3	·	-7	-2.6
- COc1cc(NC(=O)c2ccco2)ccc1NC(=O)c1ccccc1Cl
  -4.0	-4	1	-0.5	-3%	-2	0.4
- O=C(NCc1ccco1)c1cc(-c2ccc(F)cc2)on1
  -0.8	7	34	3.7	11%	-2	0.3
- Cc1cc(N2CCOCC2)c2c(N)cc(C)c(C)c2n1
  2.3	1	-2	?	11%	-4	1.4
- CCS(=O)(=O)n1nc(-c2ccccc2)nc1SCc1ccccc1
  0.9	-40	·	5.1	7%	6	2.9
- CC(C)OC(=O)/C(=C/c1cccnc1)NC(=O)c1ccccc1
  -4.8	-2	-2	0.3	·	8	7.0
- Cc1ccc(-c2nc3ncccc3o2)cc1NC(=O)C(C)(C)C
  -2.2	1	-1	0.2	·	-23	-6.2
- COC(=O)c1c(NC(=O)C2CC2)sc(C(=O)Nc2ccccc2)c1C
  1.2	-19	-2	-1.2	-12%	-8	-8.6
- COc1ccccc1C(O)P(=O)(OC1CCCCC1)OC1CCCCC1 (stereo not given)
  3.2	2	-3	4.4	-4%	4	-3.4
- COc1ccc(C(=O)Cn2nc(CNc3ccc(Br)cc3)[n+]3c2CCCCC3)cc1
  0.6	1	-7	1.2	-2%	-5	2.0
- O=C(NCc1ccco1)C1CCC(N2C(=O)C3C4CCC(C4)C3C2=O)CC1 (stereo not given)
  -4.9	13	1	13	3%	1	-0.5
- C=CCNc1oc(/C=C/c2ccccc2)nc1C#N
  -1.0	8	30	0.8	-2%	-4	0.1
- O=C(/N=C1/c2ccccc2CN1c1ccccc1)Nc1ccccc1
  -4.2	-22	5	1.1	·	-16	1.2
- C[C@H](CO)N1C[C@H](C)[C@@H](CN(C)S(=O)(=O)c2ccc(F)cc2)Oc2ccc(NC(=O)CCC(F)(F)F)cc2C1=O
  -2.0	·	-4	·	·	1	-1.1

Filtered by structure: the compounds so far containing sulfur (three)
Under each structure – LANA-H2A inh	Calb FLC	ALR H2O2 inh	RanGTP-Impb inh	Vif TR-FRET	Beta2AR agonist	HNF4A DNA FP
- CCS(=O)(=O)n1nc(-c2ccccc2)nc1SCc1ccccc1
  0.9	-40	·	5.1	7%	6	2.9
- COC(=O)c1c(NC(=O)C2CC2)sc(C(=O)Nc2ccccc2)c1C
  1.2	-19	-2	-1.2	-12%	-8	-8.6
- C[C@H](CO)N1C[C@H](C)[C@@H](CN(C)S(=O)(=O)c2ccc(F)cc2)Oc2ccc(NC(=O)CCC(F)(F)F)cc2C1=O
  -2.0	·	-4	·	·	1	-1.1

Next part
Under each structure – LANA-H2A inh	Calb FLC	ALR H2O2 inh	RanGTP-Impb inh	Vif TR-FRET	Beta2AR agonist	HNF4A DNA FP
- Cc1ccc(NC(=O)CSc2nnc(C3CC3)n2CC2CCCO2)cc1C (stereo not given)
  2.1	2	·	4.7	-3%	-2	-0.4
- COc1cc(C)c(CN2CCN(S(=O)(=O)c3ccc(Cl)s3)CC2)cc1OC
  -1.4	·	·	·	·	-7	-1.6
- CC(c1ccccc1)N1C(=O)c2ccc(C(=O)Nc3ccccc3C(=O)O)cc2C1=O (stereo not given)
  1.4	-13	98*	4.0	·	19	2.9
- CCOc1ccccc1CNn1nnnc1N
  0.7	-10	-12	0.5	3%	-24	5.0
- N#CC(=C(O)COC(=O)CCCNC(=O)c1ccc(Cl)cc1)c1nc2ccccc2[nH]1
  ·	·	·	·	-4%	12	13
- COc1ccc(-c2nnc(-c3cccnc3)o2)cc1
  -0.4	12	-3	-0.7	6%	-10	-0.6
- CC1(C)Cc2c(C#N)c(NC3CCCCC3)nc(-c3ccco3)c2CO1
  -0.7	21	10	10	26%	13	7.0
- Cc1ccc(C)c(S(=O)(=O)Nc2ccc3sc(C)nc3c2)c1
  2.7	8	1	2.2	2%	-20	1.8
- COc1ccc2nc(NC(=O)CN3C(=O)NC4(CCCCC4)C3=O)sc2c1
  -1.7	12	-8	3.5	·	11	-2.0
- CCOc1ccc(S(=O)(=O)N2CCOCC2)c2ccccc12
  3.5	-5	-21	2.7	·	-8	-3.4
- Cc1ccc(S(=O)(=O)N2CCCN(C(=O)OC(C)(C)C)CC2)cc1
  -2.1	-9	-6	-1.1	-4%	-2	-1.1
- CCC(C)[C@H]1CN=C(N)N1CC1CCCCC1 (stereo not given in full)
  -2.7	-27	·	-0.3	·	·	·
- CC(C)(CNC(=S)NCCc1ccccc1)CNC(=S)NCCc1ccccc1
  ·	5	·	2.5	·	9	-1.1
- CCCOC(=O)c1ccc(NC(=O)c2ccc(Br)o2)cc1
  -2.2	9	-3	0.5	-5%	5	0.2
- NC(=O)c1csc(-c2ccncc2)n1
  0.3	8	-15	2.4	-2%	0	-3.5
- Cc1ccc2cc(C(c3nnnn3Cc3ccccc3)N3CCc4ccccc43)c(=O)[nH]c2c1 (stereo not given)
  4.4	-4	-15	6.4	70%	9	-8.7
- Cc1cccc(CN2CCN(C(=S)Nc3ccccc3)CC2)c1
  4.5	-1	-11	2.8	·	4	1.2
- CCOc1cccc(-c2nnc3n2N=C(c2cc(OC)ccc2OC)CS3)c1
  8.9	10	1	?	-2%	-10	0.7
- O=C(NCCN1CCOCC1)c1cc2ccccc2o1
  4.0	-5	·	2.0	-3%	-1	2.6
- CN(C)S(=O)(=O)c1cccc(NC(=O)CC23CC4CC(CC(C4)C2)C3)c1
  1.3	0	-2	4.5	·	-3	-5.1
- OCCNc1nnc(-c2ccccc2)c(-c2ccccc2)n1
  0.3	12	-6	7.2	·	-3	-2.2
- Cc1ccc(NC(=O)/C(=C/c2ccc([N+](=O)[O-])cc2)NC(=O)c2ccccc2)cc1
  -5.4	-3	-2	9.7	6%	-3	-1.7
- Cc1nn(-c2cccc(C(=O)O)c2)c(C)c1Oc1ccccc1O
  -2.7	-2	40	7.2	32%	-1	-1.7
- COc1cccc2cc(C(=O)C3=C(O)C(=O)N(CCN4CCOCC4)C3c3ccc(C)o3)oc12 (stereo not given)
  4.4	-16	-20	3.4	·	-1	2.4
- O=C(CCN1CCOCC1)Nc1cc(C(=O)Nc2ccc(Cl)cc2)ccc1N1CC2CC(C1)c1cccc(=O)n1C2 (stereo not given)
  0.4	-3	-2	-1.7	·	1	1.4
- COc1ccc(-c2ccc(OC)cc2)cc1
  1.9	-1	-16	-0.2	23%	4	0.2
- Cc1c(N2C(=O)CS/C2=N\N=C\c2ccccc2O)c(=O)n(-c2ccccc2)n1C
  -4.0	-7	17	5.4	10%	2	-1.2
- CC(CNC(=O)CN1C(=O)NC2(CCCCC2)C1=O)c1ccccc1 (stereo not given)
  ·	·	·	·	-18%	-4	-0.7
- CCn1cc(CNC(=O)c2cc([N+](=O)[O-])c(C)c([N+](=O)[O-])c2)cn1
  -0.7	-6	-17	2.7	0%	-7	-3.8
- CC[C@H](C)[C@@H](NC(=O)O[C@@H]1C(=O)c2cc(OC)ccc2O[C@H]1c1ccc(OC)c(Br)c1)C(=O)OC
  0.8	·	-17	·	-3%	-6	-1.5
- COc1ccc(S(=O)(=O)N2CCOCC2)cc1NC(=O)CSc1cc(C)ccc1C
  ·	·	·	·	1%	-2	-0.9
- Cc1cccc(C(=O)N2CCc3ccccc3C2)c1[N+](=O)[O-]
  -1.5	-23	0	0.8	1%	-7	-2.4
- Cc1cccc(C)c1NC(=O)CN(C)C(=O)c1cccc(S(=O)(=O)N2CCN(C)CC2)c1
  0.7	2	0	-1.4	-5%	-2	-1.1
- Cc1cccc(N2CCN(c3nnc(C(F)(F)F)s3)CC2)c1
  -3.3	-13	-4	-1.8	-1%	2	0.6
- Cc1nnc(NC(=O)CSc2nnc(CNC(=O)C34CC5CC(CC(C5)C3)C4)n2C2CCCCC2)s1
  2.7	-5	-28	?	-2%	-9	3.2
- O=C(c1ccco1)N1CCN(C(c2ccc(Cl)cc2)c2nnnn2Cc2ccccc2)CC1 (stereo not given)
  1.7	3	-3	2.3	22%	7	2.2
- COc1ccc(C(=O)Nc2ccc(Br)cc2F)cc1S(=O)(=O)N1CCCC1
  ·	·	·	·	-8%	2	-0.4
- CC(=O)c1c(C)[nH]c(C(=O)NCc2ccccn2)c1C
  -0.1	1	0	9.1	-4%	5	1.7
- O=C(Nc1cccc(Cl)c1)OC1CCCCc2cccnc21 (stereo not given)
  1.9	7	-5	-1.0	-3%	2	-1.6
- O=C(Nc1ccc(CN2CCCCC2)cc1)c1ccc2c(c1)OCO2
  -0.5	-1	-9	-2.5	7%	-15	6.1
- COCCCNCCOc1ccccc1-c1ccccc1
  5.6	-4	-1	?	-10%	2	-0.9
- CCOC(=O)Cc1csc(NC(=O)CCCCCN2C(=O)c3cccc4cccc(c34)C2=O)n1
  -2.7	-7	-1	-1.8	·	4	1.2
- CC1CC(C)CN(C(=O)c2ccc(S(=O)(=O)N3CCCCC3)cc2)C1 (stereo not given)
  0.8	4	-8	5.0	2%	11	-0.9
- CCOP1(=O)C=C(Sc2ccc([N+](=O)[O-])cc2[N+](=O)[O-])C(C)(C)O1 (stereo not given)
  ·	·	·	·	5%	-14	5.3
- CCn1ccnc1CN1CCC(CO)(CCOc2ccccc2)CC1
  -0.4	?	6	?	-10%	2	-5.1
- O=C(COc1ccc(Cl)cc1Cl)NCc1ccncc1
  ·	-29	·	?	-3%	-13	-2.6
- CSc1ccccc1NC(=O)c1ccc(Br)o1
  2.0	-9	0	-0.3	-5%	-6	-3.1
- CC(=O)NCCSC(=O)c1ccc(F)cc1
  -2.8	6	6	-0.6	-2%	-7	-0.5
- O=C(O)c1ccc(NS(=O)(=O)c2cc(Cl)ccc2Cl)cc1
  3.3	4	-2	0.5	16%	3	-1.4

Single records (already shown). Values in the order: LANA-H2A inh	Calb FLC	ALR H2O2 inh	RanGTP-Impb inh	Vif TR-FRET	Beta2AR agonist	HNF4A DNA FP
CC1(C)Cc2c(C#N)c(NC3CCCCC3)nc(-c3ccco3)c2CO1 reads -0.7	21	10	10	26%	13	7.0
CC(=O)c1c(C)[nH]c(C(=O)NCc2ccccn2)c1C reads -0.1	1	0	9.1	-4%	5	1.7
Cc1cccc(C)c1NC(=O)CN(C)C(=O)c1cccc(S(=O)(=O)N2CCN(C)CC2)c1 reads 0.7	2	0	-1.4	-5%	-2	-1.1
NC(=O)c1csc(-c2ccncc2)n1 reads 0.3	8	-15	2.4	-2%	0	-3.5
CCOC(=O)Cc1csc(NC(=O)CCCCCN2C(=O)c3cccc4cccc(c34)C2=O)n1 reads -2.7	-7	-1	-1.8	·	4	1.2
